Biofilm kill mix: mixtures killing C. albicans biofilm; C. albicans biofilm persisters + clotrimazole, fluorescence viability; primary screen in compound mixtures of four per well; inhibition, % at 7.6 µM; 0.02% of 120,000 active; AID 1242;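 active = inhibition above 30.3% in the primary screen of four-compound pools, then above 30% when the compound was retested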;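 also: compounds exposed to preformed 24 h biofilms for 48 h; the number belongs to the whole pool; some results filed as inactive read as strong as hits; inactives centre near 12; 0% = biofilm with clotrimazole alone and 100% = kill control; retested singly at about 60 µM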
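Test system: C. albicans biofilms. Buffer or medium: RPMI/MOPS medium, pH 7.0. Timing: 48 h compound exposure at 37 °C. Technique: Alamar Blue fluorescence. Evaluation: percent inhibition of biofilm viability.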
Starred values were filed as active, the others as inactive. Not all compounds are listed; rates above refer to the full screens.

SMILES | Biofilm kill mix
COC(=NC(C)C)NC(C)C | 24.9
Cc1ccc(N(NC(=O)C(O)(c2ccccc2)c2ccccc2)C(=O)CCl)cc1 | 17.1
Cc1[nH]c2ccccc2c1SCC(=O)O | 13.9
Cc1ccc(/C=N/NC(=O)c2cccc(S(=O)(=O)Nc3ccccc3Cl)c2)s1 | 19.8
CCc1cc(C(=O)N2CCCC(CCC(=O)N3CCN(c4ccccn4)CC3)C2)no1 (configuration not stated) | 21.8
Cc1ccc(/C=N/NC(=S)Nc2cccc(S(=O)(=O)N(C)C)c2)o1 | 22.0
Cc1cc(C(=O)Nc2ccc(S(=O)(=O)N3CCCC3)cc2)no1 | 3.4
CCOC(=O)C1CCN(C(=O)Nc2cccc(Cl)c2)CC1 | 7.8
Cc1[nH]n(-c2ccccc2)c(=O)c1/C=C1\C=NN=C1c1ccccc1 | 6.5
COC(=O)c1ccc(Cl)c(NC(=O)CN(c2ccc(OC)c(OC)c2)S(C)(=O)=O)c1 | 7.2
CSc1ccccc1NC(=O)c1cc2ncc(Br)cn2n1 | 6.0
CC(C)(C)c1nnc(NC(=O)Nc2ccc(Cl)cc2)s1 | 16.7
Cc1ccc(-n2[nH]c(C)c(/C=N/NC(=O)c3cccc([N+](=O)[O-])c3)c2=O)cc1C | 3.8
O=C(COC(=O)CC1CC2CCC1C2)NC(=O)NC1CCCC1 (configuration not stated) | 4.7
CCOc1ccc(NC(=O)COC(=O)c2ncc(Cl)c(Cl)c2Cl)cc1 | 10.6
O=C(O)c1cccc(Nc2ncnc3ccc(Br)cc23)c1 | 9.2
O=C(O)CCNC1CCCCC1 | 17.8
CC(=O)c1ccc(S(=O)(=O)N2CCN(c3ccccc3F)CC2)cc1 | 27.4
N#Cc1cccc(NC(=S)Nc2ccccc2)c1 | 18.9
COc1ccc2c(c1OC)C(=O)OC2C1c2c(cc3c(c2OC)OCO3)CCN1C (configuration not stated) | 12.4
CC(C)(C)n1cnc2cc(NCc3cccs3)ccc21 | 31.6
COc1ccc(C(=O)N2CCC(C(=O)c3ccc(F)cc3)CC2)cc1 | 11.2
O=C(Nc1ccccc1O)/C(=C\c1ccccc1)NC(=O)c1ccccc1 | 5.2
CCOC(=O)c1sc(N)c(C(=O)OCC)c1C | 14.6
CCOC(=O)c1ccc(NC(=O)CCNC(=O)c2ccc([N+](=O)[O-])cc2)cc1 | 13.0
COCCC(=O)Nc1ccc2c(c1)CN(C(=O)CCOC)CC2 | 18.0
COc1ccc(CC2(C)OC(c3ccc([N+](=O)[O-])cc3)=NN2C(C)=O)cc1 (configuration not stated) | 17.2
CC1OC2(C)OC(=N)C1(C#N)C(C#N)(C#N)C2c1ccccc1 (configuration not stated) | 13.0
COc1ccc(C)cc1NC(=O)NCc1ccccn1 | 16.2
O=C(CCc1nnc(Cc2c[nH]c3ccccc23)o1)NCC1CC12CCCCC2 (configuration not stated) | 20.1
CSc1ccccc1C(=O)OCC(=O)NC1CCS(=O)(=O)C1 (configuration not stated) | 4.6
CCN(C(=O)CSc1nnc(-c2ccc(F)cc2)c2ccccc12)C1CCS(=O)(=O)C1 (configuration not stated) | 8.3
COc1ccc2c3c([nH]c2c1)C1CC2C(CC(O)C(OC)C2CO)CN1CC3 (configuration not stated) | 14.7
CCOC(=O)C1CCN(C(=O)c2cc(C)n(C(C)(C)C)n2)CC1 | 19.6
COc1ccc(CC(NC(C)=O)C(=O)NC2CCN(c3nc(C)cc(C)c3C#N)CC2)cc1 (configuration not stated) | -1.9
CCOC(=O)Cc1nn(Cc2ccc(Cl)cc2)c(=O)c2ccccc12 | 21.3

Part of the list above in a different format:
| molecule | Biofilm kill mix |
| --- | --- |
| COc1ccc2c3c([nH]c2c1)C1CC2C(CC(O)C(OC)C2CO)CN1CC3 (configuration not stated) | 14.7 |
| COc1ccc(CC(NC(C)=O)C(=O)NC2CCN(c3nc(C)cc(C)c3C#N)CC2)cc1 (configuration not stated) | -1.9 |
| CCOC(=O)c1ccc(NC(=O)CCNC(=O)c2ccc([N+](=O)[O-])cc2)cc1 | 13.0 |
| CCOC(=O)C1CCN(C(=O)c2cc(C)n(C(C)(C)C)n2)CC1 | 19.6 |

The results go on:
SMILES | Biofilm kill mix
Cc1cc(C(=O)NNC(=S)NCc2ccco2)n(C)n1 | 4.9
COc1cccc(-c2cc(C(F)(F)F)n3nc(C(=O)Nc4c(C)n(C)n(-c5ccccc5)c4=O)cc3n2)c1 | 8.2
CN(C)CCCN(C(=O)c1ccc2c(c1)CCCC2)c1nc2ccc(Cl)cc2s1 | -0.7
CCOC(=O)c1ccc(NC(=O)c2nc[nH]c2C(=O)N[C@@H](CCCCNC(=O)OC(C)(C)C)C(=O)OC(C)(C)C)cc1 | 7.2
CCOC(=O)C1=C(C)N(C)C(=S)NC1c1c(OCC)ccc2ccccc12 (configuration not stated) | 7.0
O=C(CCc1nnc(CCCCc2ccccc2)o1)NCCN1CCCCC1=O | 25.4
Cc1cccc(C)c1NC(=S)NC(C)CCc1ccccc1 (configuration not stated) | 26.6
O=C1COc2ccc(C(=O)COC(=O)CCSc3ccc(Cl)cc3)cc2N1 | 8.9
CC(C)N(C(C)C)S(=O)(=O)c1ccc(NN)nc1 | 9.5
COc1cc(CC(NC(C)=O)C(=O)NC2CCN(c3nc(OC)nc(OC)n3)CC2)cc(OC)c1 (configuration not stated) | 18.9
COC(=O)c1c(Cc2ccccc2Cl)c[nH]c1C | 10.2
COc1cc(/C=N/NC(=O)c2sc3ccccc3c2Cl)ccc1OC(=O)c1ccc([N+](=O)[O-])cc1 | 15.6
C/C(CC(=O)NC1C2CC3CC(C2)CC1C3)=N\NC(=O)Cc1cccs1 (configuration not stated) | 16.4
O=C(N/N=C/c1ccc(F)cc1)c1ccccc1 | 25.0
CC(=O)c1c(C)n([O-])c2cc(F)c(F)cc2[n+]1=O | 15.4
COc1cc2ccc(=O)oc2c(CC=C(C)C)c1OC | 13.1
O=C(CCC1CCCN(C(=O)COc2ccccc2)C1)N1CCN(c2ccccn2)CC1 (configuration not stated) | 14.8
Cc1ccn2c(c1)nc(=S)n2C(=O)c1ccco1 | 3.5
Cc1ccc(CN2CCNC(=O)C2CC(=O)NC2CCCCCC2)o1 (configuration not stated) | 11.8
CN(C)c1ccc(NC(=S)NCC2CCCO2)cc1 (configuration not stated) | 10.5
COc1ccc(CCNC(=O)CSc2nncs2)cc1 | 11.7
Cc1cc(C)n2nc(C(=O)OCC(=O)N3CCC3)nc2n1 | 0.0
COc1cc(/C=C2\SC(=O)NC2=O)ccc1Oc1cnccn1 | 11.2
O=C1c2ccccc2NC(c2ccccc2)N1CCCN1CCOCC1 (configuration not stated) | 21.0
O=C(NCc1cccs1)c1ccc([N+](=O)[O-])cc1 | 12.7
CC1CC(C)CN(c2ccc([N+](=O)[O-])nc2)C1 (configuration not stated) | -2.7
C=CCn1c(SCc2nc3ccccc3c(=O)[nH]2)nc2sc3c(c2c1=O)CCCC3 | 9.2
Cc1ccc(Cl)cc1N1CCN(C(=O)CN(C2CCCCC2)S(C)(=O)=O)CC1 | -4.2
CCOC(=O)C/C(C)=N/NC(=O)CNc1cccc(Cl)c1C | 19.7
CCn1c(-c2cccn(Cc3ccc(Cl)cc3Cl)c2=O)n[nH]c1=S | -0.6
N#C/C(=C(/O)COC(=O)c1ccccc1O)c1nc2ccccc2s1 | 4.0
CCSCc1nnc(SCC(=O)Nc2nccs2)n1CC | 4.1
O=C(CCc1ccccc1)Nc1ccc(NC(=O)C2CCCCC2)nc1 | 6.3
CC(C)OCCCNC(=O)c1ccc2c(c1)ncn2C1CCCC1 | 2.9
COc1cccc(NC(=S)N2CCN(Cc3ccccc3)CC2)c1 | 19.6
COc1ccc(NC(=O)CSc2nc3ccccc3c3nc4ccccc4n23)cc1 | 7.5

4 compounds from above, ordered by formula weight, smallest number first.
SMILES | Biofilm kill mix
CCOC(=O)C/C(C)=N/NC(=O)CNc1cccc(Cl)c1C | 19.7
CC(C)OCCCNC(=O)c1ccc2c(c1)ncn2C1CCCC1 | 2.9
Cc1ccc(Cl)cc1N1CCN(C(=O)CN(C2CCCCC2)S(C)(=O)=O)CC1 | -4.2
C=CCn1c(SCc2nc3ccccc3c(=O)[nH]2)nc2sc3c(c2c1=O)CCCC3 | 9.2

The results go on.
SMILES | Biofilm kill mix
Cc1ccc(-c2csc(NC(=O)COc3ccc(N(C)S(=O)(=O)c4ccc(C)cc4)cc3)n2)cc1 | 18.6
O=C(Nc1ccccc1Cl)c1ccccc1S(=O)(=O)c1ccccc1[N+](=O)[O-] | 14.8
COc1cc(C(=O)Oc2ccccc2/C=N/NC(=O)c2ccc(Cl)cc2)cc(OC)c1OC | 9.4
Cc1cc(C)c(C#N)c(SCc2nnc(-c3ccccc3[N+](=O)[O-])o2)n1 | 3.5
CCN1CCN(C(=O)c2ccc(OCC(=O)Nc3ccc(F)cc3)c(OC)c2)CC1 | -4.4
O=C(OC(C(=O)NCc1ccc2c(c1)OCO2)c1ccncc1)c1ccc(Cl)nc1 (configuration not stated) | 28.5
COc1ccc(/C=N/OCC(=O)Nc2ccc3c(c2)OCO3)c(OC)c1 | 15.3
COCCn1c(SCc2ccc(OC)c(F)c2)nc2ccccc2c1=O | 7.3
C=CCc1c(C)nc2c(OC)cccc2c1Cl | 12.4
COc1cc(C)nc(N(C)C(C)=O)n1 | 15.9
CCCCC1=CC2=CC(=O)C(C)(OC(=O)C3CCCC3)C(=O)C2=CO1 (configuration not stated) | 45.4
COc1ccccc1Cn1c(C(C)C)nc2ccccc21 | 13.9

Two entries picked at random from the list so far, as already listed:
SMILES | Biofilm kill mix
CC1CC(C)CN(c2ccc([N+](=O)[O-])nc2)C1 (configuration not stated) | -2.7
CCOC(=O)c1sc(N)c(C(=O)OCC)c1C | 14.6

Later entries
SMILES | Biofilm kill mix
CCOc1ccc(NC(=O)CN(c2ccc(OCC)cc2)S(=O)(=O)c2c(C)[nH]c(=O)[nH]c2=O)cc1 | -7.5
C/C=C/C(=O)N1CC2(CC(c3cccc(NC(=O)CC)c3)=NO2)C[C@H]1C(N)=O (some centres not stated) | 15.8
NC(=O)c1cc(C(N)=O)nc(Cl)n1 | 14.3
O=C(Cn1ccc(C(F)(F)F)n1)N/N=C/c1ccc2c(c1)OCO2 | 8.9
Cc1ccc(-c2csc(/C=C3\SC(C)C(=O)N3CC(=O)Nc3ccccc3F)n2)cc1 (configuration not stated) | 14.3
CCOc1ccc(Nc2nc(N)nc(CCl)n2)cc1 | 2.6
COc1ccc2c(c1)-c1c(ssc1=S)C(C)(C)N2 | 7.0
NNC(=O)c1csc(Cc2c(Cl)sc3ccc(Cl)cc23)n1 | 24.5
Cc1ccc(S(=O)(=O)N(c2nc(NC(C)C)nc(NC(C)C)n2)n2cnnc2)cc1 | 14.8
COc1ccc(/C=C(/NC(=O)/C=C/c2ccccc2)C(=O)O)cc1 | 8.6
COC(=O)Nc1ccccc1C(=O)N1CCC(O)(c2ccc(Cl)cc2)CC1 | 5.5
Cc1nc2ccc(NC(=O)N3CCCCC3)cc2nc1C | 10.6
CC(C)Cc1nc2oc3c(=O)[nH]cnc3c2c2c1CCCC2 | 12.1
COc1cccc(NC(=O)Nc2cccnc2)c1 | 12.3
O=C(Nc1ccc(S(=O)(=O)Nc2ncccn2)cc1)c1ccccc1NS(=O)(=O)c1ccc(F)cc1 | 10.4
CCOc1ccc2ncc(S(=O)(=O)c3ccccc3)c(N3CCC4(CC3)OCCO4)c2c1 | 8.2
COc1ccccc1N1CCN(C(=O)c2ccc(Cn3c(=S)[nH]c4cc5c(cc4c3=O)OCO5)cc2)CC1 | 23.1
N=C1CCC(=N)c2c1c(O)c1ccccc1c2O | -9.6
CCOC(=O)c1cc(NC(=O)c2ccccc2)c(=O)n2c1oc1ccccc12 | 5.5
CN(C(=O)COC(=O)c1cc(NS(=O)(=O)c2cc([N+](=O)[O-])ccc2Cl)ccc1O)C1CCCCC1 | 18.7
C=C1CCN([C@H](C(=O)NCc2ccc(Cl)c(Cl)c2)C(C)C)S(=O)(=O)c2ccccc21 | 5.2
COc1ccc(O)c(CNc2ccccc2F)c1 | 13.9
Cc1cc(C(=O)COC(=O)CNC(=O)c2ccccc2)c(C)n1CC1CCCO1 (configuration not stated) | 0.8
Oc1oc(-c2ccc(Br)cc2)nc1C=Nc1ccc(Br)cn1 | 9.3
CN(C(=O)c1c[nH]c(=O)cc1C(F)(F)F)c1ccc(Cl)cc1 | 17.0
Cc1ccc(/C=N/n2c(-c3ccc(Cl)cc3)n[nH]c2=S)o1 | 23.6
COC(=O)C1=C(C)Nc2c(c(=O)n(C)c(=O)n2C)C1c1ccc(Cl)cc1 (configuration not stated) | 10.7
Cc1nc2nc[nH]n2c(=O)c1C/C=C/c1ccccc1 | -0.7
CC(C)CC(NC(=O)C(CC(C)C)NC(=O)C(Cc1ccc(OCc2ccccc2)cc1)NC(=O)OC(C)(C)C)C(N)=O (configuration not stated) | 1.4
COC(=O)CC(c1ccc(C(C)C)cc1)n1cccc1 (configuration not stated) | 11.8
O=C(CC1SC(=O)N(c2ccccc2)C1=O)Nc1ccc(Br)cc1 (configuration not stated) | 22.6
COc1ccc(C(=O)NC(=S)Nc2ccc3oc(=O)ccc3c2)cc1OC | 9.4
CCOC(=O)CN1C(=O)N(CC)C(C)=C(C(=O)OC)[C@@H]1c1ccccc1 | 17.0
Cc1cccc(NC(=O)c2cn(-c3ccccc3)nc2-c2ccccc2)c1 | 11.5
COc1ccc(C(=O)C2CC2c2ccc3c(c2)OCO3)cc1 (configuration not stated) | 21.1

For reference, part of the list above:
SMILES | Biofilm kill mix
CC(C)CC(NC(=O)C(CC(C)C)NC(=O)C(Cc1ccc(OCc2ccccc2)cc1)NC(=O)OC(C)(C)C)C(N)=O (configuration not stated) | 1.4
COC(=O)CC(c1ccc(C(C)C)cc1)n1cccc1 (configuration not stated) | 11.8
O=C(CC1SC(=O)N(c2ccccc2)C1=O)Nc1ccc(Br)cc1 (configuration not stated) | 22.6
COc1ccc(C(=O)NC(=S)Nc2ccc3oc(=O)ccc3c2)cc1OC | 9.4
CCOC(=O)CN1C(=O)N(CC)C(C)=C(C(=O)OC)[C@@H]1c1ccccc1 | 17.0
Cc1cccc(NC(=O)c2cn(-c3ccccc3)nc2-c2ccccc2)c1 | 11.5
COc1ccc(C(=O)C2CC2c2ccc3c(c2)OCO3)cc1 (configuration not stated) | 21.1
